RecA intein inh: Mtb RecA intein splicing inhibition; P9WHJ3; cell-free RecA intein splicing, fluorescence; inhibition, %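 (about 9 µM by stock and volumes)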; 0.75% of 290,000 active; in the data active means inhibition above about 30%; inconclusive means no clear call, values can overlap the other calls;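 further: 0% = vehicle wells and 100% = reference inhibitor control wells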
Target sequence (P9WHJ3 whole entry, looked up): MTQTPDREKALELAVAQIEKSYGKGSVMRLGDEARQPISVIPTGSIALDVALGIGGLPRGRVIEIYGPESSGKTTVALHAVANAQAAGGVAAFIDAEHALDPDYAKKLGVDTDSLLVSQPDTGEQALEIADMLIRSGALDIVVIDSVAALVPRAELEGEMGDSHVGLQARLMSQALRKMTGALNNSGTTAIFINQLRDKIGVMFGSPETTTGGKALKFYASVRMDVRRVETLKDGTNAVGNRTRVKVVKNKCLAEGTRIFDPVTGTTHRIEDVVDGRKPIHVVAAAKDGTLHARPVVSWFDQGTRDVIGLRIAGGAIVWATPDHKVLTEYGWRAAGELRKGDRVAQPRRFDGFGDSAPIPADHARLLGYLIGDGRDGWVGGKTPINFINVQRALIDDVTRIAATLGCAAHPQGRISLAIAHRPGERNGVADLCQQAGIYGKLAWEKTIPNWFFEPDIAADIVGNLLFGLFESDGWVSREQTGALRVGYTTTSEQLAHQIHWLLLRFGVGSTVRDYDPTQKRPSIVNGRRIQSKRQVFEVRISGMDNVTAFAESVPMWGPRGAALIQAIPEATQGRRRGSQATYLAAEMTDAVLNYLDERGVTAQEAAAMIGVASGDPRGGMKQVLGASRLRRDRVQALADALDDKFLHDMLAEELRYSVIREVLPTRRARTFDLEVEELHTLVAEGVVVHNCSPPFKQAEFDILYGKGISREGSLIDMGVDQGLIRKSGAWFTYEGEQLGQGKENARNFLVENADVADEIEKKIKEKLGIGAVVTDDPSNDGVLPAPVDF
Mtb betalactam: beta-lactam sensitization of Mtb H37Rv; 0.27% of 330,000 active; M. tuberculosis H37Rv growth with meropenem, percent inhibition; hits of this screen are not shown here; inhibition, % at 25 µM;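 active means about 74% or more and at least 40 points above the plate without the antibiotic, then above 30% in a dose series; inconclusive means first-round hits that could not be retested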;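 further: growth measured after seven days incubation then overnight dye step; 0% = bacteria only wells and 100% = bacteria with antibiotic; twin plates without the antibiotic show which effects depend on it; some results filed as inactive read as strong as hits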
YopH inh: blocks Yersinia enterocolitica YopH tyrosine phosphatase | 0.16% of 140,000 active | fluorescence Ex485/Em525 | inhibition, %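 (about 10 µM by stock and volumes)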 | AID 898;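 active means inhibition of 50% or more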;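 further: controls were vehicle for no effect and minimum signal wells for full effect; inactives centre near -20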
Mtb growth: M. tuberculosis H37Rv growth inhibitors, H37Rv strain (AID 1626). inhibition, % at 10 µM; hits with a dose series show IC50 in µM. 0.95% of 220,000 active. M. tuberculosis H37Rv growth inhibition; higher % means a stronger effect;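 active means confirmed in a dose series; inconclusive means inhibition above 80% but not taken into the dose series; inactive means below 80% or under 30% at every dose of the series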;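 further: bacteria incubated seven days before Alamar blue readout; 0% = bacteria only wells and 100% = bacteria with antibiotic wells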
Arbovirus anti: antivirals against arbovirus infection | 0.37% of 200,000 active | inhibition, % at 10 µM | arbovirus infection cell-based antiviral screen;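 active means inhibition from about 30%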;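 further: bluetongue infection of BSR cells; cell survival read as ATP light after 72 h; 0% = infected wells without compound and 100% = uninfected wells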
Arbovirus anti repeat: recorded beside Arbovirus anti, whose call it bears; inhibition, %; measured here: 10K subset replicate screen; many hits read low in the repeat;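 first of two repeat runs on a subset; 0% = infected and 100% = uninfected wells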
Starred values were filed as active, the others as inactive; ? = inconclusive; . = not tested or not shown.

SMILES	RecA intein inh	Mtb betalactam	YopH inh	Mtb growth	Arbovirus anti	others
CC1=CC(C)[C@H](/C=N/n2c(=O)[nH]c3c([nH]c4ccc(Br)cc43)c2=O)C(C)C1 (some centres undefined)	2.8	9.7	.	26.4%	-22.1
C=C(C)CN(CC)C(=O)CN1C(=O)NC2(CCc3ccccc32)C1=O (centres undefined)	1.0	-5.3	.	.	.
CCN1C(=O)CC(N2CCN(c3ccc(OC)cc3)CC2)C1=O (centres undefined)	1.1	-6.3	-6.5	1.4%	-3.7
Cc1cccc(NC(=O)c2cc(-c3ccc(C)s3)nc3ccccc23)n1	-10.3	67.3	-12.2	36.3%	-22.6
CCOC(=O)C(O)(CC(=O)c1ccc(OC)cc1)C(F)(F)F (centres undefined)	1.7	2.5	-34.7	-9.3%	-1.0
CC(C)CNC(=O)Nc1ccccc1F	-0.8	-3.5	.	0.4%	0.3
CC1=C(C#N)C(c2ccccc2O)C(C#N)=C(C)N1	-1.6	0.5	.	.	0.1
Cn1c(=O)n(C)c2cc(NC(=O)c3ccc(F)cc3)ccc21	0.4	-10.5	.	.	.
Cn1ccnc1SCC(=O)Nc1cccc(C(F)(F)F)c1	-0.2	-6.2	-24.8	-9.8%	0.5	Arbovirus anti repeat=0.2
O=C(C1CCCCN1S(=O)(=O)c1ccccc1[N+](=O)[O-])N1CCOCC1 (centres undefined)	-1.7	-1.2	.	-7.8%	6.1
Cc1[nH]n(-c2ccccc2)c(=O)c1N=Nc1ccccc1C(=O)O	8.4	-3.2	.	.	.
CC1CCCCN1C(=O)Cc1ccc(F)cc1 (centres undefined)	-5.2	-8.8	-26.7	-12.8%	3.4
COc1cccc(C(=O)N2CCN(C(=O)c3cccc4ccccc34)CC2)c1OC	-1.2	-7.1	-6.7	-3.3%	3.9
Cc1nc2ccc(NC(=O)N3CCN(c4ccccn4)CC3)cc2s1	-1.0	15.9	8.9	0.8%	-8.8
CCOC(=O)Cc1csc(N/N=C\c2ccccc2OC)n1	-1.0	51.7	.	.	.
C=CCNC(=S)N1CC2(C)CN(C(=S)NCC=C)CC(C)(C1)C2=O	-2.2	0.4	.	-6.8%	.
CN1CCN(c2ccc(NC(=O)c3ccc(C(F)(F)F)cc3)cn2)CC1	2.1	-3.7	.	2.4%	-12.6
Cc1ccccc1N1CCN(Cc2c[nH]c3ccccc23)CC1	8.2	83.1	-17.5	-2.8%	-33.7
O=C(Cc1ccccc1[N+](=O)[O-])NCc1ccc(Cl)cc1	-0.3	1.0	-23.9	10.8%	-3.7
Cc1ccc(-c2nc(C3CCCN(S(=O)(=O)c4ccc(C)cc4)C3)no2)cc1 (centres undefined)	0.9	-6.8	.	3.5%	1.5	Arbovirus anti repeat=-2.7
COc1ccc(CN=C(NS(=O)(=O)c2cccs2)SC)cc1	-2.8	3.5	-26.8	1.3%	-5.5
O=C(Nc1cccc(-n2cccn2)c1)C1CCCN(Cc2cccc(F)c2F)C1 (centres undefined)	2.3	1.7	.	.	.
FC(F)(F)c1cccc(NC(=S)N2CCCCCC2)c1	1.7	-1.1	.	-0.7%	4.5
O=C(CCc1ccc(S(=O)(=O)NCc2ccccc2)cc1)NCc1ccco1	-2.0	12.5	-20.2	7.4%	-1.3
CN(C)C(=O)c1ccc(=O)n(Cc2ccc(Cl)cc2Cl)c1	-0.6	7.0	.	.	.

Remaining list, next part:
SMILES	RecA intein inh	Mtb betalactam	YopH inh	Mtb growth	Arbovirus anti	others
Nc1c(C(=O)NCc2ccco2)nnn1Cc1ccccc1	2.4	0.2	16.6	7.8%	10.6
CCOC(=O)C1=C(CS(=O)(=O)c2ccccc2)NC(=O)NC1c1ccccc1OCC (centres undefined)	-0.1	-4.2	-29.7	11.8%	9.5	Arbovirus anti repeat=2.0
O=S(=O)(NCCCN1CCOCC1)c1ccc(Cl)cc1	0.8	-2.4	.	.	.
CCOC(=O)N1CCC2(CC1)C(C#N)=C(N)OC1=C2C(=O)CC(C)(C)C1	-2.4	-11.6	7.2	6.2%	-3.3
O=C(O)C1(c2ccccc2)CCN(S(=O)(=O)c2ccc(Cl)s2)CC1	1.2	-5.0	.	-3.0%	.
Cc1ccnc(NC(=O)Nc2cccc(F)c2)c1	-0.9	-4.5	-0.4	-6.6%	-1.4
CCC(C)(C(=O)NC1CCCC1)N(C(C)=O)c1ccc(C)cc1 (centres undefined)	2.1	-4.1	-19.8	-11.3%	4.2
O=C(Nc1nc2ccccc2c2nc3ccccc3n12)c1ccc(F)cc1	-1.2	-6.5	-9.8	55.0%	3.1
CCOC(=O)C1=C(c2ccccc2)N=c2s/c(=C\c3ccc(O)cc3)c(=O)n2C1c1cccs1 (centres undefined)	-1.4	99.4	-35.1	8.75µM*	-1.2
O=C(CN1CCCC(O)C1)N1c2ccccc2Sc2ccc(C(F)(F)F)cc21 (centres undefined)	2.4	-3.8	-12.2	-0.7%	3.2
CCCc1c(O)nc(SC2CC(=O)N(c3ccc(C)c(Cl)c3)C2=O)[nH]c1=O (centres undefined)	1.2	-5.6	.	.	.
Cc1ccc(CNC(=O)C(OC(=O)c2cccs2)C(C)C)cc1 (centres undefined)	2.7	1.3	.	.	.
Brc1ccc(CSc2nccn2-c2ccccc2)cc1	14.2	16.0	-8.5	13.4%	5.7
Cc1ccc(NC(=O)CN2CCN(Cc3ccccc3)CC2)cc1Cl	-1.9	-12.3	.	.	.
COc1ccc(NC(=O)CSc2nnc(CNC(=O)c3ccco3)n2-c2ccccc2OC)cc1	.	6.7	-1.4	.	10.0
CCc1ccc(NC(=O)N(CCOC)C2CCN(C(C)=O)CC2)cc1	2.6	.	-13.7	-1.9%	1.7
O=[N+]([O-])c1ccc2[nH]ncc2c1	-2.6	-4.1	.	-3.5%	9.7
Cc1cc(C)c2nc(N(CCN(C)C)C(=O)c3ccc4ccccc4c3)sc2c1	12.4	10.0	.	.	.
COc1ccc(C(C(=O)NC2CCCC2)N(C(=O)c2snc(C(N)=O)c2N)c2ccccc2OC)cc1OC (centres undefined)	1.5	-1.1	.	.	.
CCOC(=O)N1CCN(C(=O)c2cc(COc3ccc(OC)cc3Cl)on2)CC1	2.2	7.8	.	.	.
CCCCCSc1nc2c(c(=O)[nH]c(=O)n2C)n1C(C)C	-1.7	-2.0	-24.1	-1.1%	2.2	Arbovirus anti repeat=3.9
CC1(C)Cc2c(ccc3ccccc23)C2=C(C(=O)N3CCCC3)C(=O)C(=O)N21	-2.0	.	.	2.4%	14.9
CCOC(=O)Cn1nc(C)c(NC(=O)COc2ccccc2)c1C	-3.4	4.7	.	4.6%	0.6
COc1ccc(F)cc1S(=O)(=O)NCC1CCCO1 (centres undefined)	1.8	-8.3	.	.	.
CCOC(=O)/C(=N\Nc1ccccc1Cl)N(C)C1CCCCC1	2.4	-0.3	.	1.0%	-18.6

Continuation.
SMILES	RecA intein inh	Mtb betalactam	YopH inh	Mtb growth	Arbovirus anti	others
O=C(c1ccccc1)c1cccn1CC(=O)N1CCN(c2ccccc2)CC1	1.5	-12.9	-23.3	-5.3%	-7.7
C/C(N)=C(/C#N)C(=O)CSc1nc(C2CCCCC2)n(-c2ccccc2)n1	.	-3.5	-23.2	-6.4%	-11.9
Cn1c(COc2nnc(-c3ccc(Cl)cc3)c3ccccc23)nc2ccccc21	-0.1	2.7	-11.1	.	9.9
CCN(CC)CCCNC(=S)N1CCN(c2nc3ccccc3n2CC)CC1	2.6	0.8	.	.	.
CCC(C)(C)n1nnnc1C(c1ccc(C)cc1)N1CCSCC1 (centres undefined)	0.4	-11.3	-15.8	2.5%	-2.1
Cc1ccc(CNC(=O)C2CC(=O)OC23CCCC3)c(C)c1 (centres undefined)	-0.4	-2.7	-13.8	-5.6%	-6.0
COc1cccc(N2CC(C(=O)OC(C)C(=O)c3ccccc3)CC2=O)c1 (centres undefined)	-5.9	0.2	-14.6	-2.4%	11.0
CCN1CCN(C(=O)c2cc(S(=O)(=O)N3CCCCC3)ccc2Cl)CC1	-0.8	-6.5	.	.	.
CC(C)CNc1oc(-c2ccccc2Cl)nc1C#N	2.6	97.5	.	9.4%	6.7
COc1ccc(-n2nc3c(N4CCC(C(=O)NCCc5ccco5)CC4)nnc(C)c3c2C)cc1	-1.0	6.0	.	.	.
COc1cccc(/C=C/c2ccncc2)c1OC	1.6	12.4	-4.3	.	3.1
Cc1cccc(C(=O)OC(C)C(=O)NC2CCCc3ccccc32)c1O (centres undefined)	3.3	-3.0	.	.	.
CC(C)NC(=O)CN1C(=O)c2ccccc2S1(=O)=O	5.3	-5.7	.	-9.6%	-2.8
Cn1c(=O)cc(OCC(=O)N2CCC3(CC2)OCCO3)c2ccccc21	-2.4	?	-28.7	2.1%	6.9
COc1ccc(OC)c(S(=O)(=O)N2CCCCC2C(=O)N2CCN(c3ccccn3)CC2)c1 (centres undefined)	2.5	0.3	-21.7	-0.7%	5.4	Arbovirus anti repeat=2.9
CCC(=O)N/N=C(\C)CC(=O)Nc1cccc([N+](=O)[O-])c1	76.0*	1.5	-24.9	2.8%	0.6
CCn1cc(CN2CCC(n3nccc3NC(=O)c3ccc(OC)cc3)CC2)cn1	-3.9	-0.7	.	.	.
C/C(=N\NC(=O)COc1ccccc1)c1ccc(O)cc1	0.2	36.0	.	-1.3%	-3.1
C1CCc2nnc(C3CC3)n2CC1	-2.6	-2.8	.	5.2%	4.4
CCOC(=O)C(=O)c1c(-c2ccccc2)nc2ccccn12	.	5.1	.	-4.5%	-7.2
CCc1cc2c(=O)c(-c3cnn(-c4ccccc4)c3)c(C)oc2cc1OCC(=O)Nc1cccc(C)c1	1.4	4.9	-22.7	10.0%	-6.7
O=C(CC(Sc1ccccc1)c1cccs1)c1ccco1 (centres undefined)	2.3	22.0	-22.7	1.2%	2.0
CCOC(=O)Cn1nc(-c2ccccc2)c2cnc3ccc(C)cc3c21	-1.6	68.0	-41.1	.	-5.8
COc1ccc(N/C(N)=N/c2nc(CSc3ccc(Cl)cc3)cc(=O)[nH]2)cc1	-0.8	-8.5	-20.2	-2.6%	-16.4
O=C(c1ccco1)N1CCN(C(=O)c2cc(-c3ccncc3)nc3ccc(Br)cc23)CC1	0.9	8.8	22.1	-6.5%	.

Following part.
SMILES	RecA intein inh	Mtb betalactam	YopH inh	Mtb growth	Arbovirus anti	others
CCN1CCN(c2ccc(NC(=O)c3ccc([N+](=O)[O-])o3)cc2Cl)CC1	12.1	.	.	?	-32.1
Cc1ccccc1C(OCC(O)CN1CCN(CCO)CC1)c1ccccc1 (centres undefined)	-2.4	0.4	.	.	.
NC(=O)CC(NC(=O)c1ccc(Br)cc1)c1ccc(N2CCN(c3ccccc3)CC2)c([N+](=O)[O-])c1 (centres undefined)	1.4	-0.3	.	.	.
CCCn1c(=O)c(C(=O)Nc2ncccc2C)c(O)c2ccccc21	6.7	6.8	.	1.6%	3.1
COCCN(C(=O)CSc1nc2ccccc2c(=O)n1C(C)COC)c1c(N)n(Cc2ccccc2)c(=O)[nH]c1=O (centres undefined)	-0.2	-8.8	.	-17.5%	5.9
COc1ccc(C2C3=C(CCCC3=O)N(CC(=O)O)C3=C2C(=O)CCC3)cc1Cl	-415.6	-2.7	.	.	.
CC(=O)c1c(C)[nH]c(C(=O)NCCc2cccc(C)c2)c1C	1.1	-10.9	-20.2	3.8%	-29.8
COc1cccc(NCc2nnc(SCC(=O)N(C)C3CCS(=O)(=O)C3)n2C2CCCCC2)c1 (centres undefined)	-5.9	-33.1	.	.	.
CC(C)C[C@H](NC(=O)N1CCn2c1nc1ccccc12)C(=O)N[C@@H](Cc1ccccc1)C(=O)O	0.9	-1.6	.	.	.
Cn1nc(C(=O)NCc2ccccc2Cl)c2c1-c1ccccc1S(=O)(=O)C2	-2.5	-4.4	.	.	.
COc1ccc(C(=O)Nc2ccc(C3CC3(Cl)Cl)cc2)cc1 (centres undefined)	2.5	-2.0	.	3.9%	1.6

Screens from PubChem.

Only part of the results is shown (hit frequency here may not be typical).
